ALR inh: human ALR oxidase inhibition via reduced H2O2; purified ALR, DTT oxidation, H2O2 HRP-luminol luminescence; inhibition, % (no concentration beside the values); 3.8% of 290,000 active; AID 485317;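 active means mean and each replicate at 75% or more; inconclusive means only one of the two met; inactive means neither met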;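 further: stock transfer was 7.5 nL into about 7.5 µL; 0% = neutral wells and 100% = wells with inactivated enzyme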
LANA-H2B inh: blocks KSHV LANA binding to histone H2A/H2B | Q9QR71 | cell-free LANA-H2A/H2B peptide, fluorescence polarization | inhibition, % (test concentration not listed) | 0.6% of 320,000 active; in the data active means inhibition mostly above about 10%, no sharp cut-off; inactive means mostly below about 6.7%;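 further: stock transfer was 7.5 nL into about 10 µL; 0% = median of vehicle wells and 100% = median of positive control wells; one replicate is shown; the record names a cut of 25% in any replicate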
Target sequence (Q9QR71 whole entry, looked up): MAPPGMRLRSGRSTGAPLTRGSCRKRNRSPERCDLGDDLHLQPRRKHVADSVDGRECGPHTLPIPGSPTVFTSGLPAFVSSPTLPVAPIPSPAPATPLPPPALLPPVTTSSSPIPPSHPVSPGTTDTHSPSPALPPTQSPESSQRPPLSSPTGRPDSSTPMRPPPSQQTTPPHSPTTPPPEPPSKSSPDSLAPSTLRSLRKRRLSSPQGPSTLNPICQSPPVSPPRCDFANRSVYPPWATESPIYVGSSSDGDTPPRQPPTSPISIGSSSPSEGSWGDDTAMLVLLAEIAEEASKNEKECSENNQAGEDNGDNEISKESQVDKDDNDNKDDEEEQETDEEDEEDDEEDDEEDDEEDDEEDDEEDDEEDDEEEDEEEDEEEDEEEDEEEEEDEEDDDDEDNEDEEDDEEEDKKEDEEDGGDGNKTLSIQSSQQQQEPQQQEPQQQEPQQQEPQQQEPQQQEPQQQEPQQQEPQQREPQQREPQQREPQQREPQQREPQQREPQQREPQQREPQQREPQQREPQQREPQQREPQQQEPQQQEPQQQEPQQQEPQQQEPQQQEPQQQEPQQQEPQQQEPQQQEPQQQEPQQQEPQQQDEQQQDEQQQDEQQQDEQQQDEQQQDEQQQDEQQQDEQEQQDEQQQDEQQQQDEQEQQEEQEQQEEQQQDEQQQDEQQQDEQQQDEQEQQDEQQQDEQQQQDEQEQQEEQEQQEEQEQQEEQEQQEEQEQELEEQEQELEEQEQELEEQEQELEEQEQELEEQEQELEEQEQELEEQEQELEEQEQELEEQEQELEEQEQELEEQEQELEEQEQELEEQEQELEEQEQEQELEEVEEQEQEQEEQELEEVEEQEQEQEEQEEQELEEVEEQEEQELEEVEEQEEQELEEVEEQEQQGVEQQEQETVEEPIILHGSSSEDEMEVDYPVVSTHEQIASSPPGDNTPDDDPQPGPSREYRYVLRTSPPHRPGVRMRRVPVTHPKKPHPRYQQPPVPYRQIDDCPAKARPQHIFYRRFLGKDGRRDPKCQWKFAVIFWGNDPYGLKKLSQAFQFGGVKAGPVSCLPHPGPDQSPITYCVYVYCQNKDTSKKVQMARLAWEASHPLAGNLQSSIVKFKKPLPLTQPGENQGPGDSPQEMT
Ecoli rRNA inh: selective bacterial rRNA inhibition in E. coli; E. coli WT GFP vs humanized-ribosome RFP mutants, fluorescence, 24 h; stronger effect = lower value; DMSO median 0, no signal -100; GFP signal change (wild-type ribosome), % (concentration not given with the values); 1.6% of 350,000 active;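 active means significant combined selectivity score with lowered wild-type GFP, culture density cut under 30%, mutant RFP and density less affected; inactive means any of these conditions unmet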; further: one replicate is shown; some compounds called inactive have numbers as strong as hits
Beta cell apopt: blocks beta cell apoptosis; INS-1E cytokine-induced death, ATP luminescence, 48 h; percent of positive-control rescue, neutral wells zero; protection from apoptosis, % (test concentration not listed); 0.8% of 300,000 active;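 active means all replicates at 75% or more, or half of them and the mean; inconclusive means half reach 75% but not the mean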;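 further: 0% = cytokine-treated negative control wells and 100% = positive control rescue; higher means more ATP so stronger rescue from cytokine killing; wells of about 40 µL received 100 nL stock; the first replicate is given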
Beta2AR agonist: agonists of human beta-2 adrenergic receptor inducing internalization; 0.43% of 340,000 active; response, % (no concentration beside the values); P07550; Am2.2-beta2AR cells, FAP receptor internalization, flow cytometry; reference of the scale not given here;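 active means response above a set limit, near 3 SD of response in nonfluorescent compounds, cut at about 42% in these data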;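 further: stock transfer was 100 nL into about 11 µL; a reference agonist was the positive control; negative values mostly stem from fluorescent compounds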
T cruzi repl: blocks replication of Trypanosoma cruzi | T. cruzi beta-gal in NIH3T3, luminescence, 90 h | inhibition, % (test concentration not listed) | 1.4% of 300,000 active;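 active means mean inhibition across valid replicates above about 55%, limit read from the data; inconclusive means mean below that limit but half or more replicates reach it; inactive means mean below it, under half of replicates reach it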;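 further: signal also drops with host cell toxicity which is not excluded here; 0% = plate median of DMSO wells and 100% = zero luminescence signal; higher percent means less beta-gal luminescence so fewer parasites; stock transfer was 50 nL into about 50 µL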
Bfl-1 A1 inh: inhibitors of the anti-apoptotic protein A1, read as caspase activation; 0.066% of 330,000 active; MEF A1-2A-BIM cells, Caspase-Glo 3/7 luminescence, 3 h; percent of clofoctol response, vehicle zero; caspase activation, % (concentration not given with the values); AID 2462;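 active means over half of replicate activation scores above 10%, or exactly half above 10 with the replicate mean above 10; inconclusive means replicate mean below 10 yet half the replicates above 10; inactive means over half of replicates below 10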;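 further: wells of about 30 µL received 50 nL stock; many hits fall short of the cut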
Calb FLC: C. albicans growth modulation with fluconazole. C. albicans CaCi-2 (fluconazole-resistant clinical isolate) + fluconazole, Alamar Blue growth, 48 h. 0.57% of 300,000 active. growth inhibition, % (concentration not given with the values). AID 1979;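 active means most replicates above 75%; inconclusive means exactly half above 75%; inactive means most below 75%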;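 further: all wells also contain fluconazole at 8 µg/ml as a sub-toxic cotreatment; 0% = median of DMSO wells and 100% = median of geldanamycin control wells; wells of about 8 µL received 7.5 nL stock; the first replicate is given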
Ecoli rRNA inh OD600: further read-out of Ecoli rRNA inh, marked with its call; OD600 change, %; measured here: OD600 growth;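 optical density of the mix in the first replicate; 0 = DMSO median and -100 = no signal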
Ecoli rRNA inh RFP: also measured in Ecoli rRNA inh; calls as there; RFP signal change, %; measured here: RFP humanized mutant strains;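 first replicate; 0 = DMSO median and -100 = no signal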
An asterisk follows results filed as active; & = joins results of further samples.

CCN1CCN(Cc2ccc(NC(=O)c3cc(NC(=O)c4ccno4)cc(OC)c3)cc2C(F)(F)F)CC1 was read as ALR inh -8.9, LANA-H2B inh 3.9, Ecoli rRNA inh -10.4&0.5, Beta cell apopt -2.0, Beta2AR agonist 5.9, T cruzi repl 31.0, Bfl-1 A1 inh -0.7, Calb FLC 8.1, Ecoli rRNA inh OD600 -1.7&8.9 and Ecoli rRNA inh RFP -0.7&20.4.
For COc1cc(C(=O)Nc2ccc(C(=O)NCC3CCCO3)cc2)cc(OC)c1OC (stereo unspecified) the results were ALR inh -0.4, LANA-H2B inh -1.2, Ecoli rRNA inh 4.9, Beta cell apopt 3.2, Beta2AR agonist -1.0, T cruzi repl 1.3, Bfl-1 A1 inh 0.1, Calb FLC -0.6, Ecoli rRNA inh OD600 6.6 and Ecoli rRNA inh RFP 1.9.
Screening Cn1ccc(C(=O)Nc2sc3c(c2C(N)=O)CCCCC3)n1 returned ALR inh inconclusive, LANA-H2B inh 4.1, Ecoli rRNA inh 1.1, Beta2AR agonist -6.3, T cruzi repl -6.0, Bfl-1 A1 inh -4.5, Calb FLC 1.2, Ecoli rRNA inh OD600 4.1 and Ecoli rRNA inh RFP 1.7.
For Cc1ccc2c(c1)Sc1c(ccc3ccccc13)N2 the results were ALR inh 0.2, LANA-H2B inh -4.1, Ecoli rRNA inh -27.0*, Beta cell apopt 103.9*, Beta2AR agonist -20.1, T cruzi repl 12.1, Bfl-1 A1 inh -4.9, Calb FLC -4.6, Ecoli rRNA inh OD600 -18.2* and Ecoli rRNA inh RFP 6.0*.
Screening CC12CCC(=O)N1C(C(=O)Nc1ccccc1N1CCCCC1)CS2 (stereo unspecified) returned ALR inh 11.4, LANA-H2B inh 3.0, Ecoli rRNA inh -14.1, Beta cell apopt 2.0, Beta2AR agonist 2.8, Bfl-1 A1 inh 0.0, Ecoli rRNA inh OD600 -28.8 and Ecoli rRNA inh RFP -7.3.
`Cc1ccc(C(NC(=O)N2CCN(C)CC2)C(Cl)Cl)cc1F` (stereo unspecified) gave ALR inh -1.9, LANA-H2B inh 6.4, Ecoli rRNA inh 9.8, Beta cell apopt -0.5, Beta2AR agonist -2.9, T cruzi repl 11.2, Bfl-1 A1 inh -1.4, Calb FLC 6.6, Ecoli rRNA inh OD600 7.3 and Ecoli rRNA inh RFP 0.2.
Screening COc1ccc(NC(=O)CN(C)C(=O)Cc2ccc(-c3ccccc3)cc2)cc1 returned ALR inh 1.2, LANA-H2B inh 1.6, Ecoli rRNA inh 3.8, Beta cell apopt 3.6, Beta2AR agonist -3.0, Bfl-1 A1 inh 0.6, Ecoli rRNA inh OD600 2.2 and Ecoli rRNA inh RFP 0.1.
Screening O=C(N/N=C/c1ccc(Br)s1)c1cccc([N+](=O)[O-])c1 returned ALR inh 3.5, LANA-H2B inh -0.4, Beta cell apopt 12.6, Beta2AR agonist -27.2, T cruzi repl -12.7, Bfl-1 A1 inh 0.2 and Calb FLC 4.7.
`O=[N+]([O-])c1ccc2ncnc(Nc3ccc4c(c3)OCCO4)c2c1` gave ALR inh -4.3, LANA-H2B inh 0.1, Ecoli rRNA inh -3.1, Beta cell apopt -4.7, Beta2AR agonist 7.5, T cruzi repl -12.1, Bfl-1 A1 inh 0.0, Calb FLC 2.6, Ecoli rRNA inh OD600 -8.8 and Ecoli rRNA inh RFP -5.6.
Screening CCN1CCN(C(c2ccc(F)cc2)c2nnnn2Cc2ccc3c(c2)OCO3)CC1 (stereo unspecified) returned ALR inh -5.8, LANA-H2B inh 0.8, Ecoli rRNA inh 4.8, Beta cell apopt -4.1, Beta2AR agonist -0.6, T cruzi repl 41.7, Bfl-1 A1 inh 0.6, Calb FLC -18.6, Ecoli rRNA inh OD600 4.4 and Ecoli rRNA inh RFP -7.3.
Screening CCC1CCCCN1CCCNC(=O)c1ccc(CS(=O)(=O)c2ccc(Br)cc2)o1 (stereo unspecified) returned ALR inh -34.6, LANA-H2B inh 8.7, Ecoli rRNA inh 6.8, Beta cell apopt -9.1, Beta2AR agonist 0.6, T cruzi repl 24.5, Bfl-1 A1 inh 0.9, Calb FLC 5.8, Ecoli rRNA inh OD600 11.8 and Ecoli rRNA inh RFP 1.4.
`CCc1cc(C(=O)N=Nc2c(O)[nH]c3c(Br)cc(Br)cc23)c2ccccc2n1` gave ALR inh -3.2, LANA-H2B inh -0.7, Ecoli rRNA inh 2.5, Beta cell apopt -3.6, Beta2AR agonist -6.7, T cruzi repl 3.7, Bfl-1 A1 inh -0.3, Calb FLC -0.5, Ecoli rRNA inh OD600 12.2 and Ecoli rRNA inh RFP 5.4.
Screening CC(C)C(=O)N1c2ccccc2NC2=C(C(=O)CCC2)C1c1ccc(N(C)C)cc1 (stereo unspecified) returned ALR inh 68.6, LANA-H2B inh -2.5, Beta cell apopt -4.3, Beta2AR agonist -3.4, T cruzi repl -4.9, Bfl-1 A1 inh 0.8 and Calb FLC -1.2.
For Cc1c(NC(=S)Nc2ccccc2)c(=O)n(-c2ccccc2)n1C the results were ALR inh 46.9, LANA-H2B inh 2.0, Ecoli rRNA inh 8.7, Beta2AR agonist 4.9, T cruzi repl -3.7, Bfl-1 A1 inh 1.4, Calb FLC -10.4, Ecoli rRNA inh OD600 9.4 and Ecoli rRNA inh RFP 8.3.
CC(Oc1ccccc1Cl)C(=O)N1CCOCC1 (stereo unspecified) was read as ALR inh -2.9, LANA-H2B inh -3.5, Ecoli rRNA inh 12.4, Beta cell apopt -2.7, Beta2AR agonist 5.9, T cruzi repl -14.9, Bfl-1 A1 inh 0.0, Calb FLC 11.4, Ecoli rRNA inh OD600 16.6 and Ecoli rRNA inh RFP -0.7.
Screening COc1ccccc1CNC(=O)CN1CCC(n2cnc3cc(F)ccc32)CC1 returned ALR inh 10.6, LANA-H2B inh 5.5, Ecoli rRNA inh -1.5, Beta cell apopt -1.2, Beta2AR agonist 2.3, T cruzi repl 25.6, Bfl-1 A1 inh 1.0, Calb FLC 3.5, Ecoli rRNA inh OD600 -1.1 and Ecoli rRNA inh RFP 0.9.
CC(=O)NCCCc1nc2ccccc2n1Cc1cc(C)ccc1C was read as ALR inh -3.1, LANA-H2B inh 7.3, Ecoli rRNA inh 6.2, Beta cell apopt -5.9, Beta2AR agonist -0.4, T cruzi repl 16.5, Bfl-1 A1 inh -0.4, Calb FLC 27.3, Ecoli rRNA inh OD600 10.5 and Ecoli rRNA inh RFP -1.2.
For Cc1nn(C)c(C)c1CNC(=O)Nc1cccc(Cl)c1 the results were ALR inh 4.3, LANA-H2B inh 1.8, Ecoli rRNA inh -1.1, Beta cell apopt -3.9, Beta2AR agonist 5.4, T cruzi repl -7.0, Bfl-1 A1 inh -0.6, Calb FLC 6.7, Ecoli rRNA inh OD600 -7.1 and Ecoli rRNA inh RFP -1.6.
Screening Fc1ccc(NC(=S)Nc2cccc3cnccc23)cc1 returned ALR inh 36.1, LANA-H2B inh 0.1, Ecoli rRNA inh -8.2, Beta cell apopt -0.4, Beta2AR agonist 2.3, T cruzi repl -8.8, Bfl-1 A1 inh -1.0, Calb FLC -0.4, Ecoli rRNA inh OD600 -17.9 and Ecoli rRNA inh RFP -8.9.
For O=C(Nc1ccccc1C(=O)OCC(=O)N1CCc2ccccc2C1)c1ccco1 the results were ALR inh -1.8, LANA-H2B inh -1.8, Beta cell apopt 0.7, Beta2AR agonist 8.4, T cruzi repl 11.6, Bfl-1 A1 inh 0.0 and Calb FLC -4.6.
`CC1CCN(C(=O)CSc2nnc(N)s2)CC1` gave ALR inh -15.5, LANA-H2B inh 6.3, Ecoli rRNA inh -2.8, Beta cell apopt -5.7, Beta2AR agonist -0.1, T cruzi repl -25.2, Bfl-1 A1 inh -0.1, Calb FLC 43.2, Ecoli rRNA inh OD600 1.0 and Ecoli rRNA inh RFP -7.6.
COc1cccc(-c2nnc(-c3ccccc3[N+](=O)[O-])o2)c1 was read as ALR inh -4.9, LANA-H2B inh -4.2, Ecoli rRNA inh -9.3, Beta cell apopt -3.0, Beta2AR agonist -10.7, T cruzi repl -12.9, Bfl-1 A1 inh -3.0, Calb FLC -1.7, Ecoli rRNA inh OD600 -2.3 and Ecoli rRNA inh RFP -5.7.
Cc1ccsc1CN(C)CC(=O)Nc1ccccc1C(=O)NC1CC1 was read as ALR inh -2.2, LANA-H2B inh 4.1, Ecoli rRNA inh -3.8, Beta cell apopt -13.1, Beta2AR agonist -0.7, Bfl-1 A1 inh 0.0, Ecoli rRNA inh OD600 -11.3 and Ecoli rRNA inh RFP -2.1.
Screening O=C(CN1CCSC1=NCc1ccccc1)c1ccc(Cl)cc1 returned ALR inh -3.2, LANA-H2B inh -2.9, Beta cell apopt -5.9, Beta2AR agonist -3.6, T cruzi repl -0.1, Bfl-1 A1 inh 0.3 and Calb FLC -32.2.
Screening Cc1nc2c(-c3ccccc3)c(C)nn2c(C)c1CCC(=O)NC(C)CCc1ccco1 (stereo unspecified) returned ALR inh -1.6, LANA-H2B inh 2.3, Ecoli rRNA inh 7.6, Beta cell apopt 5.1, Beta2AR agonist -0.8, T cruzi repl 52.2, Bfl-1 A1 inh 0.1, Calb FLC 16.7, Ecoli rRNA inh OD600 4.5 and Ecoli rRNA inh RFP 1.2.
`O=S(=O)(Nc1cccc(-c2ccc3nncn3n2)c1)c1cc(F)ccc1F` gave ALR inh -1.3, LANA-H2B inh -6.9, Ecoli rRNA inh 1.1, Beta cell apopt -7.7, Beta2AR agonist 8.1, T cruzi repl -5.8, Bfl-1 A1 inh 1.7, Calb FLC -8.8, Ecoli rRNA inh OD600 -2.4 and Ecoli rRNA inh RFP -1.6.
NC(=O)c1cc(-c2csc(NCCc3ccccc3)n2)ccc1O was read as ALR inh 12.0, LANA-H2B inh -1.7, Ecoli rRNA inh 8.7, Beta cell apopt -6.0, Beta2AR agonist -13.3, T cruzi repl 1.9, Bfl-1 A1 inh 0.4, Calb FLC 10.3, Ecoli rRNA inh OD600 10.1 and Ecoli rRNA inh RFP 6.7.
Screening CCOC(=O)C1CCN(c2cc3c(cc2NC(=O)c2cc(OC)ccc2Br)n(C)c(=O)n3C)CC1 returned LANA-H2B inh 0.7, Ecoli rRNA inh -0.7, Beta cell apopt 6.8, Beta2AR agonist 13.0, T cruzi repl 9.0, Bfl-1 A1 inh 0.4, Calb FLC 8.6, Ecoli rRNA inh OD600 -5.4 and Ecoli rRNA inh RFP -2.0.
`CCC(=O)N1CCc2cc(Br)cc(S(=O)(=O)CCC(=O)NCCc3ccccc3)c21` gave ALR inh 0.8, LANA-H2B inh 1.9, Beta cell apopt -5.4, Beta2AR agonist 0.1, T cruzi repl -12.7, Bfl-1 A1 inh 0.5 and Calb FLC 35.5.
CC(=O)N1CCN(c2nc3ccc(Br)cc3s2)CC1 was read as ALR inh -4.8, LANA-H2B inh 5.4, Ecoli rRNA inh 3.4, Beta cell apopt -0.6, Beta2AR agonist -1.4, T cruzi repl -7.2, Bfl-1 A1 inh -3.1, Calb FLC 0.3, Ecoli rRNA inh OD600 -10.9 and Ecoli rRNA inh RFP 0.7.
For O=C(Cn1cnc([N+](=O)[O-])n1)N/N=C/c1cccc(Cl)c1 the results were ALR inh -20.8, LANA-H2B inh 2.8, Ecoli rRNA inh 1.2, Beta cell apopt -3.9, Beta2AR agonist 4.8, T cruzi repl 48.7, Bfl-1 A1 inh -0.6, Calb FLC 1.4, Ecoli rRNA inh OD600 1.5 and Ecoli rRNA inh RFP -0.2.

Screening results from PubChem.

Not all compounds are listed; rates above refer to the full screens.
